Compound activity from PubChem BioAssay.
HNF4A DNA FP: change in binding of human HNF4 alpha to DNA; P41235; HNF4a-FITC DNA binding, fluorescence polarization, 1 h; activity change, % at 10 µM; 360,000 compounds, 0.3% hits; AID 1224865; in the data active means activity change above about 30%, passing the limit was not always enough;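 further: controls were the assay level and a saturating level of protein; the project sought stronger binding though the title names inhibitors; some compounds called inactive have numbers as strong as hits; positive values seem to mean higher polarization but the record does not say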
Beta2AR agonist: activates human beta-2 adrenergic receptor causing internalization. P07550. Am2.2-beta2AR cells, FAP receptor internalization, flow cytometry; reference of the scale not given here. response, % (test concentration not listed). AID 504454. 340,000 compounds, 0.43% hits;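 active means response above a set limit, near 3 SD of response in nonfluorescent compounds, cut at about 42% in these data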;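 further: stock transfer was 100 nL into about 11 µL; a reference agonist was the positive control; negative values mostly stem from fluorescent compounds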
Target sequence (P07550 whole entry, looked up): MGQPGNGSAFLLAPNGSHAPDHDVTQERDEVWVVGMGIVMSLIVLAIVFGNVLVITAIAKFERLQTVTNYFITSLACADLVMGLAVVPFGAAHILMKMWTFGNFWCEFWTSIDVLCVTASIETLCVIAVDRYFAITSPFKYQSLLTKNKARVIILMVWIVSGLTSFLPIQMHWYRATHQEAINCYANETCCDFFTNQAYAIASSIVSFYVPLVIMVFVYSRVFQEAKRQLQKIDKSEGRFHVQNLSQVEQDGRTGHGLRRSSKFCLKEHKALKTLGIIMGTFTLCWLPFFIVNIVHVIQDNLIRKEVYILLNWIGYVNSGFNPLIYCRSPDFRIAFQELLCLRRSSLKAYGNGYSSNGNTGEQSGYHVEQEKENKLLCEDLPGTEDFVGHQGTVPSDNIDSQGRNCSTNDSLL
FGF22 binding: binders of recombinant human FGF22 by thermal shift | Q9HCT0 | SYPRO orange fluorescence; percent of sucrose octasulfate shift, DMSO zero | calls only at 9.99 µM | 340,000 compounds, 1.5% hits;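 active means melting point raised past a set limit in the mean and every replicate; three in four hits are not shown here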
Target sequence (Q9HCT0 whole entry, looked up): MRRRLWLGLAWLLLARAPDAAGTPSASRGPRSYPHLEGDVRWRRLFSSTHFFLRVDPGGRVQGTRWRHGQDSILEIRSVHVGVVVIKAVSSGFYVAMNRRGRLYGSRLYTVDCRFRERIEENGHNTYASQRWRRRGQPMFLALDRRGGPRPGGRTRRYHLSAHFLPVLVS
LANA-H2A inh: blocks KSHV LANA binding to histone H2A/H2B. cell-free LANA-H2A/H2B peptide, fluorescence polarization. inhibition, % (no concentration beside the values). 320,000 compounds, 0.6% hits; in the data active means inhibition mostly above about 10%, no sharp cut-off; inactive means mostly below about 6.7%;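 further: stock transfer was 7.5 nL into about 10 µL; 0% = median of vehicle wells and 100% = median of positive control wells; one replicate is shown; the record names a cut of 25% in any replicate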
ALR inh: human ALR oxidase inhibition via reduced H2O2; 290,000 compounds, 3.8% hits; inhibition, % (concentration not given with the values); AID 485317; purified ALR, DTT oxidation, H2O2 HRP-luminol luminescence; P55789;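 active means mean and each replicate at 75% or more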;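 further: stock transfer was 7.5 nL into about 7.5 µL; 0% = neutral wells and 100% = wells with inactivated enzyme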
Ecoli growth: inhibitors of Escherichia coli growth; OD600, 23 h; stronger effect = lower value; OD600 absorbance (test concentration not listed); 330,000 compounds, 0.21% hits; AID 1053175;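 active means OD600 absorbance below the run mean of sample wells minus 3.6 SD, in any replicate, cut at about 0.56 in these data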;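 further: stock transfer was 300 nL into about 60 µL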
UCH37 inh: inhibitors of human deubiquitinating enzyme UCH37. purified proteasome/UCH37, Ub-AMC cleavage fluorescence. inhibition, % (test concentration not listed). 330,000 compounds, 0.33% hits. AID 588478;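 active means mean of two replicates above 20%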;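 further: 0% = compound-free wells with enzyme and 100% = wells lacking proteasome; stock transfer was 100 nL into about 20 µL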
Target sequence (Q9Y5K5 whole entry, looked up): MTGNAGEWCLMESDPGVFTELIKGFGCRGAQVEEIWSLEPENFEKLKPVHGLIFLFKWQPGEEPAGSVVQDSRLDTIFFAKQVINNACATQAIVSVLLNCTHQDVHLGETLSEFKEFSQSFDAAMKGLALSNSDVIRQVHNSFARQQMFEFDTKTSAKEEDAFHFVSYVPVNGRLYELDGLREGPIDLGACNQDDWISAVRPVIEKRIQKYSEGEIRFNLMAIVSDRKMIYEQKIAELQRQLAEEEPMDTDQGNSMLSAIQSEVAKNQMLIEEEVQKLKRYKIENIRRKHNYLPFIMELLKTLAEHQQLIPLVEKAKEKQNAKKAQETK
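assay system = human UCH37 enzyme supplied as purified proteasome complex | amount = proteasome at 0.15 nM in the dispensed enzyme solution | schedule = 30 min compound-proteasome preincubation then 25 min substrate reaction, room temperature | measured by = fluorescence, ex 355 nm, em 460 nm | benchmarks = no-proteasome wells (full inhibition) and compound-free wells (no inhibition)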
* hit, by the source's call; i = inactive; / = not tested or not shown; + = active, no number. Not all compounds are listed; the hit share may differ from the screen's.

Below each compound: HNF4A DNA FP, Beta2AR agonist, FGF22 binding, LANA-H2A inh, ALR inh, Ecoli growth, UCH37 inh
COc1ccc(OC)c(N(CC(N)=O)S(=O)(=O)c2ccc(OC)c(OC)c2)c1
 : 0.8, 2, /, 1.8, 99*, 0.74, 0.6
O=C(COc1ccc(Cl)cc1Cl)NN1C(=O)C2C3C=CC(C3)C2C1=O (stereo unspecified)
 : -1.6, -5, i, 2.4, -24, 0.68, 0.8
O=C(Nc1ccccc1C(F)(F)F)NC1(C(=O)N2CCOCC2)CCCCC1
 : -22, 11, i, /, /, /, /
Nn1c(SCC(=O)Nc2ccc(F)cc2)nnc1-c1ccccn1
 : 3.2, -8, /, 2.4, -8, 0.67, 2.7
Clc1ccccc1N1CCN(Cc2c[nH]c3ccccc23)CC1
 : 0.7, 17, i, -8.4, -5, 0.65, 6.7
CN(C)CCOC1c2ccccc2C=Cc2ccccc21
 : /, 8, i, -0.1, 2, 0.68, 7.1
O=S(=O)([N-]c1nc2ccccc2nc1-[n+]1ccccc1)c1ccccc1
 : -0.3, 3, /, 4.2, 0, 0.63, 3.1
Cc1nn(C2CCS(=O)(=O)C2)c(Cl)c1/C=C/C(=O)OCC(=O)Nc1ccccc1[N+](=O)[O-] (stereo unspecified)
 : 4.1, 0, i, -4.0, 0, 0.65, 0.0
Cc1ccc(Cl)cc1NC(=O)NCCN1CCCCC1
 : -2.4, -1, i, -1.2, -9, 0.61, 0.6
COc1cc(S(=O)(=O)N2CCN(Cc3ccccc3)CC2)ccc1Br
 : -1.1, 6, /, 1.6, -4, 0.71, -0.4
Cc1cc(N2C(=O)C(O)=C(C(=O)c3cc4ccccc4o3)C2c2ccc(Br)cc2)no1 (stereo unspecified)
 : -0.6, 0, i, 3.3, /, /, /
COc1cc(NC(=O)c2cc(S(=O)(=O)N3CCCCC3)ccc2N2CCOCC2)cc(OC)c1OC
 : 8.5, -4, i, /, /, /, /
C/C(=N\NC(=O)Cc1ccc([N+](=O)[O-])cc1)c1cccnc1
 : -2.4, -2, i, 1.4, -7, /, /
COc1ccc(NC(=O)CCNS(=O)(=O)c2cccc3nsnc23)cc1OC
 : 1.0, 8, i, -0.1, -8, 0.66, 0.6
c1ccc2c(c1)ncn2-c1ccc(-c2ccnc3ncnn23)cc1
 : -0.1, -4, /, /, /, 0.72, -14
CCC(Oc1nc2ccccc2nc1-c1ccccc1NC(C)=O)C(=O)c1ccccc1 (stereo unspecified)
 : -3.0, 10, /, -3.3, -13, 0.68, 2.4
O=C(O)/C(=C\c1ccc(-c2ccccc2[N+](=O)[O-])o1)c1ccccc1
 : 1.5, 13, i, -5.6, /, 0.67, 9.1
CN(C1CCCCC1)S(=O)(=O)c1ccc(C(=O)N2CCN(c3nc4ccccc4s3)CC2)cc1
 : -3.7, 6, /, 5.9, -13, 0.72, 4.4
CCC(C)C(=O)N1CCCC(c2nc(-c3cccs3)no2)C1 (stereo unspecified)
 : 3.1, 7, /, -1.5, -4, 0.71, 4.9
C=CCNC(=S)NNC(=O)c1ccc([N+](=O)[O-])cc1
 : 4.3, 3, /, 3.5, 22, 0.69, 7.5

Next section.
Below each compound: HNF4A DNA FP, Beta2AR agonist, FGF22 binding, LANA-H2A inh, ALR inh, Ecoli growth, UCH37 inh
CCOC(=O)C1CCN(C=Nc2cc(C)on2)CC1
 : -1.0, 1, /, 0.2, -3, 0.69, 4.0
Cc1ccccc1C(=O)Nc1ccccc1C(=O)NCC(C)C
 : -2.0, 1, i, /, -2, /, /
O=S(=O)(NCC(Nc1ccccc1)c1ccccc1)c1ccc(Cl)cc1 (stereo unspecified)
 : 3.2, 32, /, 1.9, 0, 0.68, 2.0
O=C(COc1ccc(S(=O)(=O)N2CCCC2)cc1)NCc1ccco1
 : -1.1, -6, /, -0.4, 1, 0.74, 0.3
Cc1ccc(-c2cc(C(=O)N(C)CC(=O)Nc3ccccc3Br)c3ccccc3n2)o1
 : 5.4, 23, i, -2.4, /, 0.66, i
C=C1CC2C=C(NC(C)=O)CC(C1)C2 (stereo unspecified)
 : 0.3, -3, i, 1.7, -9, 0.72, -0.1
Cc1ccc(OCCCC(=O)NCc2ccco2)cc1
 : -0.2, 0, /, -2.4, -1, 0.68, 1.6
CCc1ccccc1NC(=O)CNC(=O)c1cn(Cc2ccccc2)nc1-c1cccnc1
 : -1.5, 1, i, 0.4, 3, 0.71, -0.1
O=C(CSc1nc2ccccc2c(=O)n1Cc1ccco1)Nc1cccc(O)c1
 : -3.2, -6, i, -6.7, /, 0.7, 3.4
COc1ccc(C(=O)NNC2CC(=O)N(Cc3ccc(Cl)cc3)C2=O)cc1OC (stereo unspecified)
 : -1.1, 5, /, -2.1, 9, 0.69, 1.5
Cc1cccc(C=CC(=O)c2ccc(Cl)cc2)c1
 : 3.6, 0, i, /, /, 0.67, 1.1
CCOC(=O)c1oc2ccccc2c1CSc1nnnn1-c1ccc(OC)cc1
 : 0.4, 0, /, 2.3, /, 0.7, -1.1
CCO[C@@H]1OC(C(=O)NCc2nc3ccccc3[nH]2)=C[C@H](C(C)(C)C)[C@H]1CCCO
 : -1.6, 16, i, -6.5, -7, 0.8, 3.4
Cc1ccc(-c2nnn(CC(=O)N(CCO)C(C(=O)NC3CCCC3)c3ccc(F)cc3)n2)o1 (stereo unspecified)
 : 1.1, 5, i, 7.2, -22, 0.67, 0.9
COc1ccc(-c2cnn(C3CCS(=O)(=O)C3)c2N)cc1 (stereo unspecified)
 : -1.8, -1, /, 7.7, 18, 0.67, 0.4
COc1ccc(-c2c(C(=O)O)c(C(=O)O)c3n2CCC3)cc1
 : 1.2, -11, i, 2.4, /, 0.68, 0.2
Cc1cc(C)n2nc(SCc3nnc(SCc4ccccc4C)s3)nc2n1
 : -4.6, -10, i, 1.7, 2, 0.7, 1.3
O=C(Nc1cccc(Cl)c1)N(CCN1CCOCC1)Cc1ccccc1F
 : 0.4, 0, /, -3.0, -5, 0.64, 2.8
CCOC(=O)Cc1csc(SCC(=O)N(CC(C)C)c2c(N)n(Cc3ccccc3)c(=O)[nH]c2=O)n1
 : -0.8, 8, i, -3.1, -11, 0.7, -0.1
COc1ccc(C(NC(=O)c2ccccc2F)NC(=O)c2ccccc2F)cc1
 : -0.7, 1, /, 2.1, -1, 0.69, -1.3

Single records, from the list above.
CCOC(=O)c1oc2ccccc2c1CSc1nnnn1-c1ccc(OC)cc1 is listed with HNF4A DNA FP: 0.4; Beta2AR agonist: 0; FGF22 binding: /; LANA-H2A inh: 2.3; ALR inh: /; Ecoli growth: 0.7; UCH37 inh: -1.1
CCO[C@@H]1OC(C(=O)NCc2nc3ccccc3[nH]2)=C[C@H](C(C)(C)C)[C@H]1CCCO is listed with HNF4A DNA FP: -1.6; Beta2AR agonist: 16; FGF22 binding: i; LANA-H2A inh: -6.5; ALR inh: -7; Ecoli growth: 0.8; UCH37 inh: 3.4

More structures:
Below each compound: HNF4A DNA FP, Beta2AR agonist, FGF22 binding, LANA-H2A inh, ALR inh, Ecoli growth, UCH37 inh
COc1ccccc1NCCC(=O)OCC(=O)Nc1ccccc1Cl
 : 0.8, -3, i, -0.6, /, 0.65, 0.6
S=C1COC(c2ccccc2)N1c1ccccc1 (stereo unspecified)
 : -1.7, 4, /, 1.4, /, 0.65, 0.7
CSC1=N/C(=C\c2cccc(F)c2)C(=O)S1
 : -5.2, 4, /, 3.0, 1, 0.68, -0.6
Cc1cc(C)cc(C(=O)N(CCc2ccccc2)C2=CC3CCC(C2)N3C)c1 (stereo unspecified)
 : 1.7, 11, i, -9.1, /, 0.73, 1.4
Cc1ccc(-n2nc3c(N4CCC(C(=O)NCCc5cccs5)CC4)nnc(C)c3c2C)cc1
 : 7.4, 9, i, -5.3, -4, /, /
Cc1cc(=O)oc2c(C)c(OC(C)C(=O)NCc3ccccn3)ccc12 (stereo unspecified)
 : -1.1, -8, i, -4.2, 0, 0.69, -27
CC[N+]1(CC)CC2CCC(C)(C1)C2(C)C (stereo unspecified)
 : -0.1, 2, i, -1.3, -1, 0.67, 0.5
CN(/N=C/c1cc(Cl)cc(Cl)c1O)C(=S)NC(C)(C)C
 : 1.0, 2, i, -0.2, 32, /, /
COC(=O)c1ccccc1NS(C)(=O)=O
 : 1.4, 1, i, 3.4, 6, 0.67, 1.3
CC12CCC(C(=O)Nc3nccs3)(OC1=O)C2(C)C (stereo unspecified)
 : 2.8, 6, /, 0.3, -3, 0.72, 6.4
CCCCc1nnc(NC(=O)CSc2nc(O)c(-c3ccccc3)c(=O)[nH]2)s1
 : -3.3, 6, i, -2.3, 59, 0.72, 5.9
CC(NC(=O)c1ccc(Br)s1)c1ccncc1 (stereo unspecified)
 : -2.8, 8, i, -0.3, -21, 0.68, -0.1
CN(C(=O)COC(=O)c1cccc(S(=O)(=O)N2CCCCCC2)c1)C1CCS(=O)(=O)C1 (stereo unspecified)
 : 1.7, 4, /, -0.6, -1, 0.71, 0.0
CC(C)CNC(=O)c1ccccc1N(Cc1ccccc1)S(C)(=O)=O
 : -1.6, -1, i, -1.5, 0, 0.71, 3.8
CCN(Cc1cc2ccccc2[nH]c1=O)C(=O)c1cccnc1
 : -0.3, 2, /, 3.2, -2, 0.71, -3.8
COc1cc(OC)cc(C(=O)Nn2c(C)nc3ccccc3c2=O)c1
 : -4.5, -27, /, -6.0, 0, 0.72, 1.5
O=C(Nc1cccc(C(=O)N2CCCCC2)c1)c1ccccc1
 : 0.3, -4, i, /, /, /, /
C=CCc1ccccc1OCC(O)CN1CCN(CCO)CC1 (stereo unspecified)
 : -0.3, -8, i, -2.2, 1, 0.69, 1.8
CC1(C)C2CCC1(C)C(OC(=O)CC(=O)O)C2 (stereo unspecified)
 : /, /, i, -0.4, 4, 0.67, 1.5
CSC1=NCCN1C(=O)COc1ccc2ccccc2c1
 : 5.9, -11, i, -3.4, -13, 0.72, 5.4

Additional records follow.
Below each compound: HNF4A DNA FP, Beta2AR agonist, FGF22 binding, LANA-H2A inh, ALR inh, Ecoli growth, UCH37 inh
CCNc1cc(N2CCN(S(=O)(=O)c3ccc4c(c3)CCCC4)CC2)ccc1[N+](=O)[O-]
 : -2.8, 2, /, 7.9, -28, 0.74, 3.7
O=C(Nc1cnccn1)c1cccc(C(F)(F)F)c1
 : -2.8, 3, /, -4.4, 0, 0.69, 4.0
Cc1nc(NC(=O)c2ccccc2)sc1-c1csc(N)n1
 : 5.9, -6, /, 4.2, -7, 0.68, -7.0
Cn1c2ccccc2c(=O)c2c(=O)n(C3CCCCC3)c(-c3ccco3)nc21
 : -5.3, 7, /, -1.8, 1, 0.7, 3.1
Cc1[nH]c(=O)[nH]c(=O)c1S(=O)(=O)Nc1cccc(C(F)(F)F)c1
 : 0.6, -1, i, 3.8, -3, 0.69, 3.1
O=C(O)c1ccc(N=NN2CCOCC2)cc1
 : 1.2, 6, /, 1.2, -8, 0.69, 6.4
COc1ccc(C(=O)c2c(C)oc3ccc(O)c(CN4CCOCC4)c23)cc1
 : 7.5, -7, /, -3.7, -2, 0.72, 4.8
COc1ccc(C)cc1NC(=O)CSc1nnc(-c2ccco2)n1Cc1ccco1
 : 0.1, 1, /, -2.3, 12, 0.66, 2.8
O=C(N/N=C/c1ccccc1)c1cc[n+]([O-])cc1
 : 0.7, -8, i, -11, /, /, /
CC(=O)N1CCc2cc(S(=O)(=O)C(C)CC(=O)NCc3ccc(C)o3)ccc21 (stereo unspecified)
 : 4.4, /, i, -3.6, 20, 0.71, 3.8
N#C/C(=C/c1ccc(F)cc1)C(N)=S
 : 6.1, 0, i, -1.3, 65, 0.69, -0.9
CCCn1c(=O)[nH]c(=O)c2c1nc(-c1cccs1)n2CCOC
 : 2.5, -6, +, 1.9, 1, 0.67, -145
